TRPML1 blocker: qHTS for Inhibitors of the Human Mucolipin Transient Receptor Potential 1 (TRPML1); Mucolipin-1 (Homo sapiens), Q9GZU1; TRPML1-inducible cells, Ca2+ dye fluorescence, FDSS; stronger effect = lower value; inhibition of EC80 agonist-evoked calcium signal; activity change, negative = inhibition, % (no concentration beside the values); 0.02% of 390,000 active; AID 624415, 2012; in the data active means activity change below about -50%; inconclusive means about -30% to -50%; inactive means above about -30%;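 also: stimulus is agonist 54-4 at its EC80 concentration; % is scaled to controls: 0 for no effect and ±100 for the full control effect; compound concentration not given in the record; the text of the record puts the active cut at -80%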
Target sequence (Q9GZU1 whole entry, looked up): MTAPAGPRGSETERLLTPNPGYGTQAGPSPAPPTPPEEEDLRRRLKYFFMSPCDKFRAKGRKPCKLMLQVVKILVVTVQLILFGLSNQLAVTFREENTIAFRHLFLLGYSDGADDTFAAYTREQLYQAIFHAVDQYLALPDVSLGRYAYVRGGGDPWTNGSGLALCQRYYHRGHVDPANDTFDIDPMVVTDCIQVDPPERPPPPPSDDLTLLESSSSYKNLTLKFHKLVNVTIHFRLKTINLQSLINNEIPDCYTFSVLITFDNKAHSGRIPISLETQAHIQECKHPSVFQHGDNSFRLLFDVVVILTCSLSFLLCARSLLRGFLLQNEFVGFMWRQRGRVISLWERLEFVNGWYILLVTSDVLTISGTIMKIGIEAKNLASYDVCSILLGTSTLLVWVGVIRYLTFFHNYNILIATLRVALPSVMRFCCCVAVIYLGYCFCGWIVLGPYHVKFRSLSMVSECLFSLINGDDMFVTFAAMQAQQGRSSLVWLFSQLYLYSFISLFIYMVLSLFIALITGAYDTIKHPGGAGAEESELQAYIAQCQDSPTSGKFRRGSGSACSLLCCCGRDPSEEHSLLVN
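Tet-induced TRPML1-DL cells loaded with Ca8 no-wash calcium dye were read kinetically on FDSS. Compound addition was followed by EC80 agonist 54-4 (4 uM final); inhibition was read over 110 s.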
gsp agonist: qHTS for Agonist of gsp, the Etiologic Mutation Responsible for Fibrous Dysplasia/McCune-Albright Syndrome: qHTS | Potency, µM (series often up to 76.9 µM), for inactives: at the highest dose activation (cAMP increase), hits mostly activators | gsp mutant cells, cAMP HTRF, 30 min; control for the full effect not named in the record | 0.13% of 340,000 active; active = well fitted activation curve with a large enough effect; inconclusive = small, poorly fitted or top-dose-only effect, or another doubt; inactive = no such curve, though single readings can be large or run the other way; cell line not stated here;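 also: phosphodiesterase inhibitor Ro 20-1724 added with compounds to block cAMP breakdown; potency is read from the fitted curve at half-maximal effect; nearly all actives have a fitted effect of over 60% in size; about a fifth of the inactives were tested at one dose only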
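Cells stably selected in G418 were plated at 2000/well, grown 16-24 hr, then given compounds in DMSO with the PDE inhibitor […] (300 uM solution added) for 30 min at 37C; cAMP was read by HTRF.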
TRPV1 PAM: HTS Assay for Compounds that Act as Potentiators of the Vanilloid Receptor 1 | Transient receptor potential cation channel subfamily V member 1 (Homo sapiens), Q8NER1 | TRPV1-expressing cells, Fluo-8 calcium influx, capsaicin EC20 potentiation; host cell line not named in the record; control for the full effect not named in the record | potentiation, % at 8.33 µM | 0.02% of 320,000 active; active means potentiation above 80%; inconclusive means 30% to 80%; inactive means below 30%; also: 0% is about no effect
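TRPV1-expressing cells were cultured overnight at 35.5C and loaded with Fluo-8 calcium dye for 40 to 90 min at room temperature. After a 10 s baseline, compound was added and calcium influx was read kinetically for 3 min (ex 480/em 520 nm).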
Menin-MLL FL inh: qHTS Assay for Inhibitors Targeting the Menin-MLL Interaction in MLL Related Leukemias: Competition With Fluorescein Labeled MLL-derived Peptide; Fluorescence polarization, fluorescein-MLL peptide displacement from menin; FP activity change, % at 61.4 µM; 290,000 tested, under 10 active; AID 1766, 2009; inconclusive = falling polarisation curve, or a change in total fluorescence; inactive = total fluorescence flat and polarisation flat or rising; no compound was filed as active; the % refers to the polarisation; negative = inhibition;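 also: % of control where 0% means no effect; inhibitors lower the polarisation; unlabelled MLL peptide was the positive control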
gsp antagonist: qHTS for Antagonists of gsp, the Etiologic Mutation Responsible for Fibrous Dysplasia/McCune-Albright Syndrome: qHTS | gsp-mutant cells, cAMP HTRF, 30 min; control for the full effect not named in the record | 0.4% of 340,000 active | Potency, µM (highest dose often 76.9 µM), inactives show at the top dose activity change, negative = inhibition, actives largely listed as inhibitors; active = falling curve of any shape with a large fitted effect; inconclusive = falling curve, mostly with a smaller effect; inactive = flat or rising curve; cell line not stated here;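 also: intracellular cAMP measured with PDE inhibitor Ro 20-1724 present during compound exposure; potency is read from the fitted curve at half-maximal effect; % is scaled to controls: 0 for no effect and ±100 for the full control effect; nearly all actives have a fitted effect of over 65% in size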
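G418-selected cells were plated in DMEM/10% FBS for 16-24 h at 37C, then treated with compounds plus the PDE inhibitor […] (300 uM solution added) for 30 min at 37C. Intracellular cAMP was measured by HTRF after 30 min lysis at room temperature.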
ClpP mod: qHTS Assay for Activators of ClpP | purified B. subtilis ClpP, FRET peptide cleavage, 20 min | Potency, µM (top dose mostly 57.5 µM), for the others: at the top dose activity change, negative = active | 1.9% of 340,000 active | AID 651965, 2013; active = well fitted falling curve with a large enough effect; inconclusive = small, poorly fitted or top-dose-only effect; inactive = no such curve, though single readings can be large or run the other way; also: potency is read from the fitted curve at half-maximal effect; the source files actives as falling curves though it sought activators and does not explain the sign; nearly all actives have a fitted effect of over 65% in size; many hits overshoot -100%
Target sequence (P80244 whole entry, looked up): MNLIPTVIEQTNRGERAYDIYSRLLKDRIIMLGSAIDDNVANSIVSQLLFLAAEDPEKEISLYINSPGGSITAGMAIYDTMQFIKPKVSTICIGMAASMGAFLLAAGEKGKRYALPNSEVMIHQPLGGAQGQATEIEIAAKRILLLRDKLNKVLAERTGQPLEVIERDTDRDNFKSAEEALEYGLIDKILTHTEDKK
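Buffer: 100 mM Tris/HCl pH8, 100 mM KCl, 0.05% low protease BSA, 2.5% glycerol, 0.01% Tween-20. ClpP 10 microg/mL final; 20 min RT; delta FRET normalized to ADEP and DMSO controls.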
Sfp PPTase inh: qHTS Assay for Inhibitors of Bacillus subtilis Sfp phosphopantetheinyl transferase (PPTase) | 4'-phosphopantetheinyl transferase ffp (Bacillus subtilis), Q9F4F7 | Biochemical Sfp PPTase activity, qHTS | Potency, µM, for the others: max response, negative = inhibition, most hits filed as inhibitors | 3.5% of 310,000 active; active = well fitted inhibition curve with a large enough effect; inconclusive = small, poorly fitted or top-dose-only effect, or another doubt; inactive = no such curve, though single readings can be large or run the other way;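 also: the enzyme is Sfp with the accession as filed and its product quenches rhodamine fluorescence; potency is read from the fitted curve at half-maximal effect; 0% = enzyme reaction without inhibitor and -100% = no enzyme wells; top concentration of the series not given in the record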
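Fluorescence-quenching assay with 15 nM Sfp, 5 uM rhodamine-CoA and 12.5 uM BHQ-2-labelled ybbR peptide in pH 7.6 Hepes/MgCl2 buffer. Enzyme was pre-incubated with compound for 15 min at room temperature. Rate was taken from the 30-min fluorescence change (525/598 nm).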
Starred values were filed as active, the others as inactive; ? = inconclusive; · = not tested or not shown; & = joins results of further samples; [ ] = remark or other dose. Rows were taken by chance; 4.9% or so of the library scored in one or more.

Order of results: gsp antagonist, ClpP mod, Menin-MLL FL inh, gsp agonist, Sfp PPTase inh, TRPV1 PAM, TRPML1 blocker
> COc1ccc(NC(=O)CON=CC(=O)Nc2ccc(C)cc2)c(OC)c1
  16%, 1.3%, ·, 30%, ·, ·, 27
> Cc1nn(-c2ccccc2)c(N2CCCC2)c1/C=N/NC(=O)c1cc(-c2cccnc2)nc2ccccc12
  -33%, -3.2%, 1.2, 0%, ?, 3, -12
> COc1ccc(CCCC(=O)NCc2ccccc2)cc1C
  15%, -20%, 1.1, 21%, -2%, -28, 7
> NC(=O)c1ccc(NC(=O)Cc2csc(-c3ccccc3)n2)cc1
  1%, ·, -0.1, -16%, 26%, -15, 15
> COc1ccccc1N1C(=O)C2C(C(=O)c3ccccc3)=NN(c3ccc(C)cc3)C2C1=O (stereo not given)
  18%, ·, ?, 26%, 8%, -23, 4
> O=c1cc(-c2ccccc2)c2ccc(O)cc2o1
  -5%, ·, ·, ?, ·, ·, -7
> Cc1c(Nc2nc(-c3cccc([N+](=O)[O-])c3)cs2)c(=O)n(-c2ccccc2)n1C
  -8%, ·, -5.9, 3%, -15%, 6, 13
> Fc1ccccc1C(c1nnnn1Cc1ccc2c(c1)OCO2)N1CCN(Cc2ccco2)CC1 (stereo not given)
  22%, 0.8%, 1.9, -36%[inhibitor], 2%, -1, 3
> CC1CN=C2C(C(=O)Nc3ccccc3)=C(O)CC(c3ccccc3)N21 (stereo not given)
  -33%, 2.7%, ·, 3%, -1%, -28, -6
> COc1ccccc1NC(=O)c1ccccc1SCC(=O)N1CCCC1
  ·, -0.1%, ·, -27%, ·, ·, -8
> COc1ccc(N(CC(=O)N2CCc3ccccc32)S(=O)(=O)c2c(C)n[nH]c2C)cc1
  -6%, 0.2%, 0.7, 2%, 12%, 6, -10
> COc1ccc(-c2cc(C)no2)cc1S(=O)(=O)NCc1cccc(C)c1
  -3%, ·, ·, 5%, 11%, -1, 9
> CCc1ccc(-c2cc(C(=O)Nn3cnnc3)c3ccccc3n2)cc1
  -10%, -9.1%, 0.5, -35%[inhibitor], 10%, 7, 12
> COc1ccc(OCC(=O)Nc2c(C(=O)N3CCC(N4CCCCC4)CC3)oc3ccccc23)cc1
  4%, -5.1%, -1.0, 14%, 5%, -3, -19
> O=C(c1cnsn1)N1CCC(CO)(Cc2cccc(F)c2)CC1
  10%, ·, 2.5, -4%[15.4 µM], 1%, -9, 18
> Cc1sc2c(c1C)c(=O)n(-c1ccc(Cl)cc1)c(=O)n2Cc1cc(=O)n2ccccc2n1
  -5%, -22%&-0.9%, 4.6, -9%[15.4 µM], 3%, 2, -14&-5
> O=C(Nc1ccc2c(c1)CCC2)c1ccccc1F
  -3%, 0.5%, -0.5, -10%, ?, -5, -2
> COc1ccc(-c2cc(C)no2)cc1S(=O)(=O)N1CCN(c2ccccn2)CC1
  -19%, ?, ·, -44%[inhibitor], -3%, 5, 3
> C=CCn1c(CNC(=O)c2ccccc2F)nnc1SCc1nc2ccccc2c(=O)[nH]1
  ·, ·, 6.5, -10%[15.4 µM], 8%, 21, -13
> Cc1nc(-c2cc(-c3nc(-c4ccc(C(F)(F)F)cc4)no3)no2)cs1
  5%, 1.8%, 4.1, -4%[15.4 µM], -7%, 1, 2
> CCOc1cc(C(C(=O)NCC2CCCO2)N(C(=O)Cn2nnc3ccccc32)c2cccc(OC)c2)ccc1O (stereo not given)
  4%, -0.3%, 3.2, -6%[15.4 µM], 7%, 0, 9
> COc1ccc(Nc2nc(C)nc3c2oc2ccccc23)cc1
  -10%, ·, 0.4, -8%[15.4 µM], -3%, -14, -3
> COc1cccc(CNCc2ccc(SC)cc2)c1OC
  -9%, 1.0%, -8.5, -3%, -18%, 0, -5
> NS(=O)(=O)c1ccc(NC(=S)NC(=O)c2ccc(-c3ccccc3)cc2)cc1
  -16%, 0.3%, -1.4, -25%, -3%, ?, 24
> COc1cccc2cc(C(=O)C3=C(O)C(=O)N(CCCN(C)C)C3c3ccncc3)oc12 (stereo not given)
  ·, ·, 2.5, ·, -1%, 20, ·
> O=C(NCCOc1ccccc1)c1ccccc1F
  ·, -1.8%, ·, -132%[inhibitor], ·, ·, 0
> COc1cccc(-c2cc(C(=O)N3CCCCC3C)no2)c1 (stereo not given)
  0%, 1.2%, 7.7, -101%[inhibitor], 8%, -11, -12
> Cc1[nH]c(=O)[nH]c(=O)c1S(=O)(=O)NCC12CC3CC(CC(C3)C1)C2
  -1%, 1.7%, -2.3, -3%, 15%, 23, 4
> CC(C)NC(=O)Nc1ccc2c(c1)C(=O)N([C@H](C)CO)C[C@H](C)[C@@H](CN(C)S(=O)(=O)c1cn(C)cn1)O2
  8%, 0.2%, ·, ·, ·, ·, -24
> COC(=O)c1cc2c(ccn2-c2ccc(F)cc2)n1CC(=O)OC(C)C
  -23%, -24%, -2.4, -6%, -16%, 4, 22
> Cc1ccc(C)c(OCC(=O)Nc2cc(C(=O)O)cc(C(=O)O)c2)c1
  4%, -1.1%, -0.8, -55%[inhibitor], -21%, 2, -2
> COCC(=O)N1CCC(Oc2ccc(C(=O)NCc3cc(C)no3)cc2)CC1
  13%, 0.5%, -3.2, 21%, 19%, 1, -1
> CCOc1ccc(N=C2NC(=O)S/C2=C\c2ccc(N(C)C)cc2)cc1
  4%, -0.6%, ?, -52%[inhibitor], 8%, 9, -6
> Oc1c(Br)cc(/C=N/n2c(-c3ccccc3)n[nH]c2=S)c(Br)c1O
  ·, ·, 2.0, ·, -16%, ?, ·
> Cc1ccc(NC2CCCN(C(=O)CCN3CCCCO3)C2)cc1C (stereo not given)
  -5%, -0.8%, -0.4, -13%, 9%, -6, -9
> COc1ccc(/C(C)=N\NC(=O)C(c2ccncc2)N2CCOCC2)cc1 (stereo not given)
  8%, ·, 0.3, 15%[15.4 µM], 3%, -9, 8
> c1ccc(-c2noc(-c3cccc4ccccc34)n2)nc1
  -17%, 40µM*, -1.3, -15%, -5%, -14, -5
> CCN(CC)C(=O)[C@H]1CC(CC(=O)NCc2ccco2)C(=O)N2CCc3c([nH]c4ccc(OC)cc34)[C@]12C (stereo not given in full)
  5%, -13%, ·, ·, ·, ·, 13
> COc1ccc(/C=C2\SC(=O)N(CC(=O)NCCC(C)C)C2=O)cc1OC
  6%, -3.3%, 0.7, 4%[15.4 µM], 4%, 13, -5
> Cc1ccc(NC(=O)c2cc(C(C)(C)C)nn2Cc2ccccc2)cc1
  -7%, -2.0%, 0.0, 0%[15.4 µM], 14%, 5, -5
> COc1ccc(N(C(=O)CNC(=O)c2ccco2)C(C(=O)NC2CCCC2)c2ccc(C)o2)cc1 (stereo not given)
  9%, ·, -3.1, -9%[15.4 µM], 13%, -8, 15
> CSc1cccc(NC(=O)C(C)C)c1
  3%, ·, 3.9, 29%, -5%, 7, -4
> Cn1c(N)c(C(=O)COC(=O)CN2C(=O)c3ccccc3C2=O)c(=O)n(C)c1=O
  -6%, -1.5%, 3.3, ?, 9%, 2, -12
> O=C(NCC(c1cccs1)N1CCOCC1)c1ccc(Cl)cc1 (stereo not given)
  -3%, 3.6%, ·, 4%[15.4 µM], ·, 3, -3
> CC(C)CN(C(=O)CN1CCOCC1)c1c(N)n(CC(C)C)c(=O)[nH]c1=O
  10%, -1.9%, -1.0, -14%, 20%, -1, -16
> CCOC(=O)C1=C(O)C(=O)N(Cc2cccnc2)C1c1ccc(OC)cc1 (stereo not given)
  -4%, ·, -1.4, -2%, 21%, 0, 23
> O=C(/C=C/c1ccco1)Nc1scc(-c2ccccc2)c1C(=O)O
  -12%, ·, ?, 2%[15.4 µM], -56%, -6, 9
> CCOc1cc(CNc2ccc(OC)cc2)cc(Br)c1OCC(=O)NC(C)(C)C
  -19%, 1.4%, -0.9, 1%, -15%, 19, 32
> Cc1ccc2nc(Nc3ccccc3O)nc(-c3ccccc3)c2c1
  8%, 1.8%, 1.6, 5%, 16%, 16, 2
> COc1ccccc1/C=N/NC(=O)c1ccccc1Cl
  -5%, ·, 2.9, 14%[15.4 µM], 9%, 5, -2

The results go on:
Order of results: gsp antagonist, ClpP mod, Menin-MLL FL inh, gsp agonist, Sfp PPTase inh, TRPV1 PAM, TRPML1 blocker
> O=C(Nc1nccs1)c1ccc(COc2c(F)c(F)cc(F)c2F)cc1
  5%, 0.6%, 9.2, 14%, -1%, -10, 19
> O=C(O)CSc1nnc(CNc2cccc(C(F)(F)F)c2)n1Cc1ccco1
  4%, -5.3%, ?, -19%, 40µM*, -13, -2
> C=CCNCCOc1ccccc1-c1ccccc1
  8%, -0.2%, 4.1, 29%, 6%, -1, -3
> O=C(/C=C/c1ccccc1)NC(=S)Nc1ccccc1O
  -7%, ·, -3.5, -49%[inhibitor], -6%, 3, -12

Pulled by compound from the entries so far (four):
Order of results: gsp antagonist, ClpP mod, Menin-MLL FL inh, gsp agonist, Sfp PPTase inh, TRPV1 PAM, TRPML1 blocker
> C=CCNCCOc1ccccc1-c1ccccc1
  8%, -0.2%, 4.1, 29%, 6%, -1, -3
> O=C(Nc1nccs1)c1ccc(COc2c(F)c(F)cc(F)c2F)cc1
  5%, 0.6%, 9.2, 14%, -1%, -10, 19
> O=C(O)CSc1nnc(CNc2cccc(C(F)(F)F)c2)n1Cc1ccco1
  4%, -5.3%, ?, -19%, 40µM*, -13, -2
> O=C(/C=C/c1ccccc1)NC(=S)Nc1ccccc1O
  -7%, ·, -3.5, -49%[inhibitor], -6%, 3, -12
